# Source: PubChem (National Center for Advancing Translational Sciences (NCATS))
# Menin-MLL FL inh = menin-MLL binding inhibition, fluorescein peptide; Fluorescence polarization, fluorescein-MLL peptide displacement from menin; FP activity change, % at 61.4 µM; 290,000 tested, under 10 active; inconclusive = falling polarisation curve, or a change in total fluorescence; inactive = total fluorescence flat and polarisation flat or rising; no compound was filed as active; the % refers to the polarisation; negative = inhibition;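 note: % of control where 0% means no effect; inhibitors lower the polarisation; unlabelled MLL peptide was the positive control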
# gsp antagonist = gsp mutant antagonism; gsp-mutant cells, cAMP HTRF, 30 min; control for the full effect not named in the record; Potency, µM (titrated, usually from 76.9 µM), for inactives: top-dose activity change, negative = inhibition, actives largely listed as inhibitors; 340,000 compounds, 0.4% hits; AID 624288; active = falling curve of any shape with a large fitted effect; inconclusive = falling curve, mostly with a smaller effect; inactive = flat or rising curve; cell line not stated here;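 note: intracellular cAMP measured with PDE inhibitor Ro 20-1724 present during compound exposure; potency is the fitted concentration of half-maximal effect; % is set by controls: 0 for no effect and ±100 for the full control effect; nearly all actives have a fitted effect of over 65% in size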
#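 G418-selected cells were plated in DMEM/10% FBS for 16-24 h at 37C, then treated with compounds plus the PDE inhibitor […] (300 uM solution added) for 30 min at 37C. Intracellular cAMP was measured by HTRF after 30 min lysis at room temperature.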
# gsp ag = activates gsp, the McCune-Albright syndrome mutation | 340,000 compounds, 0.13% hits | Potency, µM (series often up to 76.9 µM), without a hit: top-dose activation (cAMP increase), hits mostly activators | gsp mutant cells, cAMP HTRF, 30 min; control for the full effect not named in the record; active = well fitted activation curve with a large enough effect; inconclusive = small, poorly fitted or top-dose-only effect, or another doubt; inactive = no such curve, though single readings can be large or run the other way; cell line not stated here;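 note: phosphodiesterase inhibitor Ro 20-1724 added with compounds to block cAMP breakdown; potency is the fitted concentration of half-maximal effect; nearly all actives have a fitted effect of over 60% in size; about a fifth of the inactives were tested at one dose only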
#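 Cells stably selected in G418 were plated at 2000/well, grown 16-24 hr, then given compounds in DMSO with the PDE inhibitor […] (300 uM solution added) for 30 min at 37C; cAMP was read by HTRF.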
# TRPV1 potentiator = enhances activation of the human vanilloid receptor TRPV1; potentiation, % at 8.33 µM; 320,000 compounds, 0.02% hits; TRPV1-expressing cells, Fluo-8 calcium influx, capsaicin EC20 potentiation; host cell line not named in the record; control for the full effect not named in the record; AID 540277; Q8NER1; active means potentiation above 80%; inconclusive means 30% to 80%; inactive means below 30%; note: 0% is about no effect
# Target sequence (Q8NER1 whole entry, looked up): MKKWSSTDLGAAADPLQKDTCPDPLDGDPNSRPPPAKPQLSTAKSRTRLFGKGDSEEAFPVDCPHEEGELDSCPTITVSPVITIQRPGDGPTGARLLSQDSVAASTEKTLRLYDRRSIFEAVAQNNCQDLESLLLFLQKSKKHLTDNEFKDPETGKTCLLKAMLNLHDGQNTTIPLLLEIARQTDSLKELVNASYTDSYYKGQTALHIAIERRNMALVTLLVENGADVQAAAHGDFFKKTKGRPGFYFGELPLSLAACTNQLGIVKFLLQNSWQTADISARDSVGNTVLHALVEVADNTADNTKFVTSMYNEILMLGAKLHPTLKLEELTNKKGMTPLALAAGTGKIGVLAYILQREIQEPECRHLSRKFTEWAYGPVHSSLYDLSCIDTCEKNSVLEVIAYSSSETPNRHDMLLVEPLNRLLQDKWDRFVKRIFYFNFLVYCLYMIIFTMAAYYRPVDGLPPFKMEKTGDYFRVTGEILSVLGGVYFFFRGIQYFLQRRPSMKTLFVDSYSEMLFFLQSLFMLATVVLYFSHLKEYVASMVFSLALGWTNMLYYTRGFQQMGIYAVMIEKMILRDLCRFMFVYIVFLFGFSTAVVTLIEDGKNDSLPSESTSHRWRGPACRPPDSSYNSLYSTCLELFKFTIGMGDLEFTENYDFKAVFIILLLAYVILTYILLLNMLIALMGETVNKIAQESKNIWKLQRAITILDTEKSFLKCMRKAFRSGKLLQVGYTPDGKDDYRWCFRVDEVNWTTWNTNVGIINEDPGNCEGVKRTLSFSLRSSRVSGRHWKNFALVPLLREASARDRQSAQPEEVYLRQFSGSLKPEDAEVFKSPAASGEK
#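 TRPV1-expressing cells were cultured overnight at 35.5C and loaded with Fluo-8 calcium dye for 40 to 90 min at room temperature. After a 10 s baseline, compound was added and calcium influx was read kinetically for 3 min (ex 480/em 520 nm).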
# ClpP mod = qHTS Assay for Activators of ClpP; AID 651965, 2013; ATP-dependent Clp protease proteolytic subunit (Bacillus subtilis (strain 168)), P80244; 340,000 compounds, 1.9% hits; Potency, µM (series often up to 57.5 µM), inactives show at the top dose activity change, negative = active; purified B. subtilis ClpP, FRET peptide cleavage, 20 min; active = well fitted falling curve with a large enough effect; inconclusive = small, poorly fitted or top-dose-only effect; inactive = no such curve, though single readings can be large or run the other way; note: potency is the fitted concentration of half-maximal effect; the source files actives as falling curves though it sought activators and does not explain the sign; nearly all actives have a fitted effect of over 65% in size; many hits overshoot -100%
# Target sequence (P80244 whole entry, looked up): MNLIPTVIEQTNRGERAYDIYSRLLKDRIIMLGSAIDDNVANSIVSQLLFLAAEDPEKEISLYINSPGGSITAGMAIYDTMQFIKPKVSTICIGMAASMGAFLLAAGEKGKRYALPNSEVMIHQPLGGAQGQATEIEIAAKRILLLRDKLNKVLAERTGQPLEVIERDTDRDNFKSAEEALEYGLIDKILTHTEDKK
#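 ClpP 10 microg/mL final, pH 8 Tris/KCl buffer with BSA, glycerol, Tween-20; compound pinned in; FRET-FV substrate; RT 20 min; Ex320/Em430; ΔFRET vs ADEP 5.8 microM, DMSO, no enzyme.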
# CtBP-E1A inh = inhibitors of CtBP/E1A interaction. AlphaScreen GST-E1A/His-CtBP binding, 1536-well; active compounds read low; control for the full effect not named in the record. activity change, % (test concentration not listed). 340,000 compounds, 0.49% hits; in the data active means activity change below about -65%; inconclusive means about -30% to -65%; inactive means above about -30%; note: % is set by controls: 0 for no effect and ±100 for the full control effect
#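 GST-E1A and His-tagged CtBP (125 nM each as 5X stock) were preincubated with pin-transferred compound for 2 h at 37 °C in the dark, then glutathione donor and nickel acceptor beads were added for 1 h before AlphaScreen reading.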
# Sfp inh = blocks B. subtilis Sfp PPTase activity; Q9F4F7; Biochemical Sfp PPTase activity, qHTS; Potency, µM, inactives show max response, negative = inhibition, actives largely listed as inhibitors; 310,000 compounds, 3.5% hits; AID 1490; active = well fitted inhibition curve with a large enough effect; inconclusive = small, poorly fitted or top-dose-only effect, or another doubt; inactive = no such curve, though single readings can be large or run the other way;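 note: the enzyme is Sfp with the accession as filed and its product quenches rhodamine fluorescence; potency is the fitted concentration of half-maximal effect; 0% = enzyme reaction without inhibitor and -100% = no enzyme wells; top concentration of the series not given in the record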
#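 Fluorescence-quenching assay with 15 nM Sfp, 5 uM rhodamine-CoA and 12.5 uM BHQ-2-labelled ybbR peptide in pH 7.6 Hepes/MgCl2 buffer. Enzyme was pre-incubated with compound for 15 min at room temperature. Rate was taken from the 30-min fluorescence change (525/598 nm).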
# * marks the source's active call; other numbers are inactive results; ? = inconclusive; / = no result given; & = joins results of further samples; [ ] = dose if it differs, or a comment.
SMILES,Menin-MLL FL inh,gsp antagonist,gsp ag,TRPV1 potentiator,ClpP mod,CtBP-E1A inh,Sfp inh
COc1ccc(-c2ccc(/C=N/N3C(=O)C4C5C=CC(C6CC56)C4C3=O)o2)c([N+](=O)[O-])c1 (stereo not given),-0.1,?,16%,6,1.3%,0,8%
CN1CCN(CCCN(Cc2ccco2)C(=S)Nc2ccc(Cl)cc2)CC1,1.1,5%,2%,-12,-1.5%,-6,14%
CSc1ccccc1NC(=O)c1cccs1,1.1,5%,7%,?,-1.6%,3,-2%
COc1ncnc2c1N[C@@](C)(O)c1c(F)c(F)c(F)c(F)c1S2,1.6,-18%[15.4 µM],-11%,17,-0.5%,10,5%
O=[N+]([O-])c1ccc2nc(CCCO)[nH]c2c1,1.4,12%,-4%,1,/,-12,13%
O=C(c1ccc[nH]c1=S)N1CCN(S(=O)(=O)c2ccc(Br)cc2Cl)CC1,-0.6,10%,-3%[15.4 µM],-2,-6.7%,-2,79µM*
Cc1nc2c(=O)n(C)c(=O)n(C)c2nc1Cl,3.1,5%,5%[15.4 µM],6,0.2%,10,-15%
O=C(N/N=C\c1cc(Br)cs1)c1ccncc1,3.6,3%,18%,-2,-0.6%,/,4%
CCCCn1c(N)c(N(CC(C)C)C(=O)CN(C)S(=O)(=O)c2ccc(NC(C)=O)cc2)c(=O)[nH]c1=O,/,10%,13%,4,-0.7%,-6,/
Cn1cnc2c(N/N=C/c3cccs3)ncnc21,0.9,-25%,7%[15.4 µM],-7,/,?,-29%
CC(C)c1ccc(NNC(=O)C2CCC2)cc1,2.3,14%,-8%[15.4 µM],-2,/,1,-2%
O=C(O)CCC(=O)NNc1nc(-c2ccccc2)c2cc(Cl)ccc2n1,0.1,9%,25%,26,-1.1%,-3,0%
O=C(COC(=O)c1ccc(Cl)cc1O)NCCN1C(=O)CSC1=O,-2.9,2%,-3%,-5,-11%,-9,-8%
O=C(Cc1ccc([N+](=O)[O-])cc1)OCc1ccc([N+](=O)[O-])cc1,-2.0,-3%,-3%,-22,/,-13,-4%
COc1ccc(OC)c(N2C(=O)CC(NNC(=O)c3ccc4c(c3)OCO4)C2=O)c1 (stereo not given),/,3%,?,/,/,-3,/
C[C@@H](NC(=O)c1nc[nH]c1C(=O)OCc1ccccc1)c1ccccc1,/,-6%,0%,9,0.7%,/,/
CCOc1ccc2nc(NS(=O)(=O)Cc3ccccc3)sc2c1,4.5,?,4%,4,-1.1%,1,-1%
Cc1ccc(-c2cc(C(=O)Nc3ccncc3)c3ccccc3n2)cc1,/,-11%,-3%[15.4 µM],-4,?,1,/
Cc1c(C(=O)O)oc2c3c(ccc12)OCCO3,1.5,2%,-4%,-6,18µM*,-12,12%
CN1CCN(C(=O)CN(C)S(=O)(=O)c2cc(Cl)ccc2Cl)CC1,-5.5,9%,-23%[15.4 µM],14,/,3,25%
CN1CCCC(CC2c3ccccc3Sc3ccccc32)C1 (stereo not given),/,-2%,/,-13,1.3%,-7,/
COC(=O)c1ccc(OC(=O)c2cccs2)cc1,2.8,7%,0%[15.4 µM],11,/,4,16%
COc1ccc(OC)c(N=C2C(=O)Nc3ccccc32)c1,-1.2,6%,-2%,-3,4.4%,5,9%
COc1cc(/C=C/C(=O)O)ccc1OS(=O)(=O)c1ccc(C)cc1,-8.0,-2%,-8%,1,/,0,-6%
COc1nc(OC/C(N)=N/O)nc(N2CCOCC2)n1,3.3,-8%,1%,2,-4.0%,-1,-2%
O=C(CCS(=O)(=O)c1ccc(Cl)cc1)Nc1cccc(S(=O)(=O)N2CCCCCC2)c1,/,-23%,-10%,/,-1.5%,-4,/
Cc1ccc(C(=O)OC(C)C(=O)Nc2ccc3c(c2)OCO3)c(O)c1 (stereo not given),/,5%,17%,-8,-6.0%,/,/
O=C(NCc1ccccc1C(F)(F)F)C1CCC(=O)N(CCCc2ccccc2)C1 (stereo not given),/,3%,2%[15.4 µM],15,-0.5%,6,1%
CC(=O)NC(Cc1cccc(C)c1)C(=O)NC1CCN(C(=O)c2ccc([N+](=O)[O-])cc2)CC1 (stereo not given),-3.3,2%,-79%[inhibitor],0,2.3%,/,0%
COc1ccc(C(=O)NC2CCCc3c2cnn3-c2cccc(C)c2C)o1 (stereo not given),/,-14%,3%,10,0.2%,/,11%
Cc1cc(Cl)cc(Br)c1OCCNCC(C)O (stereo not given),-0.4,3%,?,9,1.1%,4,17%
COc1ccc(NS(=O)(=O)c2cccc(C(=O)OCC(=O)c3c(N)n(C)c(=O)n(C)c3=O)c2)cc1,/,-1%,9%,/,-1.7%,?,/
CCN1CCN(c2nc(Nc3ccccc3F)nc(N)c2[N+](=O)[O-])CC1,3.8,16%,-44%[inhibitor],0,-1.9%,?,16%
Cc1cccc(NC(=O)CCc2ccc(S(=O)(=O)NC3CCCCC3)cc2)c1,-4.6,-10%,18%,-5,-4.5%,-12,1%
Cc1ccc(S(=O)(=O)N2CCC(C)CC2)cc1C(=O)NCCN1CCOCC1,-0.1,13%,3%[15.4 µM],-3,-3.8%,-6,25%
COc1cc2c3c(c1OC)C1(C=CC(=O)C=C1)CC3N(C(=O)c1ccccc1)CC2 (stereo not given),18,-26%,-5%,-6,0.2%,3,7%
CN(Cc1ccc(OC(F)F)cc1)C(=O)c1ccc2nccnc2c1,-0.5,9%,6%,0,-5.4%,1,16%
CCOc1ccc(NC(=O)c2ccc(OCC3CCCO3)cc2)cc1S(=O)(=O)N(CC)CC (stereo not given),/,-8%,21%,8,-28%,-5,/
COc1ccccc1N(CC(=O)NCCSCc1ccccc1)S(=O)(=O)c1ccc(C)cc1,2.9,?,-15%,-5,-0.1%,-7,8%
CN(Cc1ccccc1)S(=O)(=O)c1cccs1,-0.6,-10%,4%,-1,-1.9%,-5,8%
Cc1ccc(S(=O)(=O)N(C)c2ccccc2C(=O)NC2CCCC2)cc1,11,12%,-9%[15.4 µM],-4,2.2%,-1,7%
COc1cc(C)nc(NS(=O)(=O)c2ccc(C)cc2)n1,1.2,0%,-11%,5,?,-8,13%
COc1ccc2c(c1)c(CC(=O)O)c(C)n2C(=O)c1ccc(Cl)cc1,0.9,?,/,7,1.0%,-3,12%&16%&-4%&1%&12%
CN1c2ccccc2-c2nc3ccccc3n2C1c1ccncc1 (stereo not given),9.1,-23%,5%,9,20µM*,-11,7%
Cc1ccccc1C(=O)N1CCC(C(=O)Nc2ccc(S(=O)(=O)N3CCOCC3)cc2)CC1,/,-3%,27%,-6,1.0%,/,/
COc1ccc(OCC(=O)Nc2cc(-c3nn4c(C)nnc4s3)ccc2C)cc1,-2.4,-6%,-6%,/,-5.2%,-6,10%
CS(=O)(=O)N1CCC(C(=O)Nc2cc(C(F)(F)F)ccc2Cl)CC1,-2.0,-4%,-3%,3,0.7%,2,7%
C#CCOC(=O)C[N+](C)(C)CC#Cc1ccccc1,-1.5,7%,12%,0,-1.1%,-4,5%
COc1ccc(N2CCN(C(=O)CCC(=O)N3CCOc4ccc(Cl)cc43)CC2)cc1,0.3,-14%,-20%,7,-3.3%,-15,1%
Cc1ccc(C)c2c1cc(C)c1nnc(SCC(=O)c3cccs3)n12,-0.5,-3%,17%,-1,-2.8%,-5,-4%
COc1ccc(-c2ccc(-c3nnc(Cc4ccc(OC)c(OC)c4)o3)cc2)cc1,-2.2,4%,9%,-2,2µM*,2,-4%
Cc1ccc2c(c1)N(CCC(=O)NCCCOC(C)C)C(=O)C(C)O2 (stereo not given),2.5,6%,14%,-12,1.0%,-3,-1%
Cc1cc(C(=O)N/N=C/C=C/c2ccccc2)n[nH]1,-0.3,-10%,-4%[15.4 µM],?,/,4,5%
COCCCNC(=O)Cn1nnc(-c2ccc(NC(=O)c3cccnc3)cc2)n1,-0.2,/,/,1,/,/,17%
Cc1cc(C)nc(-n2nc(C)cc2NC(=O)c2cccc(S(=O)(=O)N3CCOCC3)c2)n1,4.3,-5%,-2%,-2,-2.7%,-4,10%
O=C(Cc1cn(Cc2cccc(Cl)c2)c2ccccc12)N1CCCC1,0.7,-32%,-14%,-14,-0.2%,-1,-22%
Cc1ccc(C(C(=O)NCc2ccc(F)cc2)N(C(=O)c2csnn2)C2CC2)cc1 (stereo not given),-0.1,-1%,-1%,-1,/,5,7%
CCOC(=O)c1c(C)[nH]c(C(=O)Cn2c(=O)oc3ccccc32)c1C,0.5,5%,-7%,-3,1.0%,-2,7%
CCNC(=S)NNC(=O)Nc1ccccc1,-1.1,6%,-4%,-1,-0.5%,7,-25%
COc1ccc(OC)c([N+](=O)[O-])c1C(N)=O,-1.8,-3%,-7%[15.4 µM],4,-1.9%,-4,-5%

# Another view of some results above.
Molecule | Menin-MLL FL inh | gsp antagonist | gsp ag | TRPV1 potentiator | ClpP mod | CtBP-E1A inh | Sfp inh
COc1ccc(-c2ccc(-c3nnc(Cc4ccc(OC)c(OC)c4)o3)cc2)cc1 | -2.2 | 4% | 9% | -2 | 2µM* | 2 | -4%
Cc1ccc2c(c1)N(CCC(=O)NCCCOC(C)C)C(=O)C(C)O2 (stereo not given) | 2.5 | 6% | 14% | -12 | 1.0% | -3 | -1%

# The list goes on.
SMILES,Menin-MLL FL inh,gsp antagonist,gsp ag,TRPV1 potentiator,ClpP mod,CtBP-E1A inh,Sfp inh
O=C(Nc1c2c(nn1-c1cccc(Cl)c1)CS(=O)C2)c1ccc2c(c1)OCO2 (stereo not given),2.6,-7%,-3%,1,1.2%,12,0%
Cc1nn(-c2ccc(Cl)c(Cl)c2)c(C)c1C(=O)O,8.6,-14%,-6%[15.4 µM],22,/,7,5%
COc1cccc(-c2nn(-c3ccccc3)cc2C(=O)NCC(=O)O)c1,0.3,-2%,0%,11,-1.2%,1,-9%
CC(=O)NC(CC(=O)Oc1ccc(C)cc1Br)c1ccccc1 (stereo not given),/,-8%,-4%,-2,-8.0%,-2,-3%
O=C(CN(C(=O)c1csnn1)c1ccc(Cl)cc1)NCCc1ccccc1,-0.8,1%,?,-1,/,3,-2%
CC[C@@]1(C(=O)OC)N[C@H](CN(C)S(=O)(=O)c2ccccc2)[C@@H]2C(=O)N(C)C(=O)[C@@H]21,/,3%,/,/,-0.2%,11,/
Cc1cccc(-n2c(O)c(C=Nc3ccccc3N)c(=O)[nH]c2=O)c1,1.4,-11%,2%,4,-1.0%,-28,-1%
